Screening results from PubChem.
Ran FRET – RanGTP/importin-beta interaction disruptors – biochemical, CFP-Ran/YFP-importin-beta FRET, RCC1, cell-free, primary screen (AID 434961). CFP-Ran/YFP-importin-beta FRET, cell-free; active compounds read high. inhibition, %. 7,700 tested, 0.2% active;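 active = more than half of the replicate wells above 15% inhibition; inconclusive = exactly half above it; inactive = fewer than half above it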;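 note: 0% = DMSO wells and 100% inhibition = RanGDP control wells on each plate; stock of unstated strength diluted about 400-fold; mean of two wells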
Numbers without * were called inactive; ? = inconclusive. Some of the compounds tested; count on the stated rates, not on these rows.

| Molecule | Ran FRET |
| --- | --- |
| C[C@@H]1CN([C@H](C)CO)C(=O)Cc2cc(NC(=O)CCC(F)(F)F)ccc2O[C@H]1CN(C)C(=O)Nc1ccccc1 | 2.0 |
| CNC[C@@H]1Oc2c(NS(=O)(=O)c3cn(C)cn3)cccc2C(=O)N([C@H](C)CO)C[C@@H]1C | -0.3 |
| COc1ccc(CN(C)C[C@@H]2Oc3ccc(NC(=O)Cn4cnnn4)cc3CC(=O)N([C@@H](C)CO)C[C@H]2C)cc1 | -0.1 |
| C[C@H](CO)N1C[C@H](C)[C@@H](CN(C)C)Oc2c(NS(=O)(=O)c3ccccc3)cccc2C1=O | -0.3 |
| CNC[C@H]1Oc2ccc(NS(C)(=O)=O)cc2CC(=O)N([C@@H](C)CO)C[C@H]1C | -3.3 |
| C[C@@H]1CN([C@H](C)CO)C(=O)Cc2cc(NC(=O)Nc3ccc4c(c3)OCO4)ccc2O[C@@H]1CN(C)CC1CC1 | 24* |
| C[C@H]1CN([C@@H](C)CO)C(=O)c2cccc(NC(=O)c3ccncc3)c2O[C@@H]1CN(C)C(=O)Nc1ccc(C(F)(F)F)cc1 | -3.3 |
| C[C@@H]1CN([C@H](C)CO)C(=O)CCCn2nncc2CO[C@H]1CN(C)C(=O)Nc1ccc(N2CCN(C)CC2)cc1 | -1.8 |
| CNC[C@H]1OCCCC[C@@H](C)Oc2ccc(NC(=O)Nc3cccc4ccccc34)cc2C(=O)N([C@H](C)CO)C[C@H]1C | ? |
| C[C@H](CO)N1C[C@H](C)[C@@H](CN(C)CC2CC2)Oc2c(NC(=O)c3ccncc3)cccc2C1=O | 0.2 |
| COc1ccc(CN(C)C[C@@H]2Oc3ccc(NC(=O)Cc4cn(C)c5ccccc45)cc3C(=O)N([C@H](C)CO)C[C@@H]2C)cc1 | ? |
| C[C@H](CO)N1C[C@H](C)[C@H](CN(C)C)Oc2ccc(N(C)C)cc2CC1=O | 1.7 |

Next section, starting with the last five of the part before.
| Molecule | Ran FRET |
| --- | --- |
| C[C@@H]1CN([C@H](C)CO)C(=O)CCCn2nncc2CO[C@H]1CN(C)C(=O)Nc1ccc(N2CCN(C)CC2)cc1 | -1.8 |
| CNC[C@H]1OCCCC[C@@H](C)Oc2ccc(NC(=O)Nc3cccc4ccccc34)cc2C(=O)N([C@H](C)CO)C[C@H]1C | ? |
| C[C@H](CO)N1C[C@H](C)[C@@H](CN(C)CC2CC2)Oc2c(NC(=O)c3ccncc3)cccc2C1=O | 0.2 |
| COc1ccc(CN(C)C[C@@H]2Oc3ccc(NC(=O)Cc4cn(C)c5ccccc45)cc3C(=O)N([C@H](C)CO)C[C@@H]2C)cc1 | ? |
| C[C@H](CO)N1C[C@H](C)[C@H](CN(C)C)Oc2ccc(N(C)C)cc2CC1=O | 1.7 |
| C[C@@H]1CN([C@H](C)CO)C(=O)Cc2cc(NS(=O)(=O)c3cccs3)ccc2O[C@@H]1CN(C)CC1CC1 | 1.1 |
| C[C@@H]1CN([C@H](C)CO)C(=O)c2cc(NS(=O)(=O)c3cn(C)cn3)ccc2O[C@H]1CN(C)C(=O)Nc1ccc2c(c1)OCO2 | 0.4 |
| C[C@@H]1CN([C@H](C)CO)C(=O)CCCn2cc(nn2)CO[C@@H]1CN(C)Cc1ccccc1 | -0.5 |
| Cc1noc(C)c1NC(=O)Nc1cccc2c1O[C@H](CN(C)S(=O)(=O)c1ccc(Cl)cc1)[C@H](C)CN([C@H](C)CO)C2=O | -5.5 |
| C[C@@H]1CN([C@@H](C)CO)C(=O)c2cccc(NS(=O)(=O)c3cn(C)cn3)c2O[C@H]1CN(C)Cc1ccc(C(F)(F)F)cc1 | 5.3 |
| C[C@@H]1CCCCO[C@@H](CN(C)C(=O)Nc2cccc3ccccc23)[C@@H](C)CN([C@H](C)CO)C(=O)c2cc(NC(=O)c3ccncc3)ccc2O1 | -3.3 |
| C[C@H](CO)N1C[C@H](C)[C@@H](CN(C)Cc2ccc3c(c2)OCO3)Oc2ccc(NC(=O)NC3CCCCC3)cc2C1=O | -6.7 |
| C[C@H]1CN([C@@H](C)CO)C(=O)c2cccc(NC(=O)NC3CCCCC3)c2O[C@H]1CN(C)S(=O)(=O)c1cccs1 | -2.1 |
| C[C@H]1CN([C@@H](C)CO)C(=O)Cc2cc(NC(=O)NC3CCCCC3)ccc2O[C@@H]1CN(C)C(=O)Nc1ccc(F)cc1 | -4.8 |
| C[C@H]1CN([C@@H](C)CO)C(=O)Cc2cc(NC(=O)Nc3cccc4ccccc34)ccc2O[C@@H]1CN(C)CC1CC1 | 0.0 |
| C[C@@H]1CN([C@H](C)CO)C(=O)c2cccc(NS(=O)(=O)c3cn(C)cn3)c2O[C@H]1CN(C)C(=O)Nc1ccc(C(F)(F)F)cc1 | 0.1 |
| CNC[C@@H]1Oc2ccc(NC(=O)Cc3ccccc3)cc2C(=O)N([C@H](C)CO)C[C@H]1C | -2.7 |
| C[C@H](CO)N1C[C@H](C)[C@@H](CN(C)C(=O)Nc2ccc3c(c2)OCO3)Oc2ccc(NS(C)(=O)=O)cc2C1=O | -1.4 |
| C[C@H](CO)N1C[C@H](C)[C@H](CN(C)C(=O)Nc2ccc(F)cc2)Oc2ccc(NC(=O)Nc3ccccc3)cc2CC1=O | -3.5 |
| C[C@@H]1CN([C@H](C)CO)C(=O)Cc2cc(NC(=O)c3ccncc3)ccc2O[C@H]1CN(C)C(=O)Nc1ccc(F)cc1 | 0.0 |
| CNC[C@H]1Oc2ccc(NC(=O)Cn3cnnn3)cc2CC(=O)N([C@@H](C)CO)C[C@H]1C | 1.8 |
| CNC[C@H]1Oc2ccc(NC(=O)Cc3ccccc3)cc2CC(=O)N([C@@H](C)CO)C[C@@H]1C | ? |
| C[C@H](CO)N1C[C@H](C)[C@@H](CN(C)C(=O)CCCN(C)C)OCCCC[C@H](C)Oc2ccc(NS(=O)(=O)c3cccs3)cc2C1=O | -2.9 |
| C[C@H](CO)N1C[C@H](C)[C@H](CN(C)CC2CC2)Oc2ccc(NC(=O)Cc3ccccc3)cc2C1=O | 5.0 |
| Cc1noc(C)c1S(=O)(=O)N(C)C[C@@H]1Oc2ccc(NS(=O)(=O)c3cccs3)cc2CC(=O)N([C@H](C)CO)C[C@H]1C | ? |
| C[C@H]1CN([C@@H](C)CO)C(=O)Cc2cc(NC(=O)NC3CCCCC3)ccc2O[C@@H]1CN(C)C(=O)Nc1ccccc1 | 3.6 |
| C[C@H](CO)N1C[C@H](C)[C@H](CN(C)C(=O)Nc2ccccc2C(F)(F)F)OCc2cn(nn2)CCCC1=O | -0.2 |
| C[C@@H]1CN([C@H](C)CO)C(=O)c2cccc(NC(=O)NC3CCCCC3)c2O[C@H]1CN(C)C(=O)Nc1ccc(C(F)(F)F)cc1 | 6.6 |
| C[C@H](CO)N1C[C@H](C)[C@@H](CN(C)C(=O)NC2CCCCC2)Oc2ccc(NS(=O)(=O)c3ccc(Cl)cc3)cc2C1=O | ? |
| Cc1noc(C)c1NC(=O)Nc1cccc2c1O[C@@H](CN(C)Cc1ccc(C(F)(F)F)cc1)[C@@H](C)CN([C@@H](C)CO)C2=O | ? |
| C[C@H](CO)N1C[C@H](C)[C@@H](CN(C)C(=O)NC2CCCCC2)Oc2c(NS(C)(=O)=O)cccc2C1=O | 3.8 |
| Cc1noc(C)c1S(=O)(=O)N(C)C[C@H]1Oc2c(NC(=O)C3CCOCC3)cccc2C(=O)N([C@@H](C)CO)C[C@H]1C | 2.3 |
| C[C@H]1CN([C@@H](C)CO)C(=O)Cc2cc(NS(=O)(=O)c3cn(C)cn3)ccc2O[C@@H]1CN(C)S(=O)(=O)c1ccc(Cl)cc1 | ? |
| C[C@@H]1CCCCO[C@H](CN(C)C(=O)Nc2ccccc2)[C@H](C)CN([C@H](C)CO)C(=O)c2cc(NS(C)(=O)=O)ccc2O1 | 3.3 |
| C[C@@H]1CCCCO[C@H](CN(C)C)[C@H](C)CN([C@@H](C)CO)C(=O)c2cc(NC(=O)CCCN(C)C)ccc2O1 | -0.3 |
| C[C@@H]1CCCCO[C@H](CN(C)C(=O)Cc2ccccc2)[C@H](C)CN([C@@H](C)CO)C(=O)c2cc(NC(=O)Nc3ccccc3)ccc2O1 | -2.9 |
| COc1ccc(NC(=O)Nc2cccc3c2O[C@H](CN(C)C(=O)Nc2ccccc2)[C@H](C)CN([C@H](C)CO)C3=O)cc1 | 12 |
| C[C@H]1CN([C@@H](C)CO)C(=O)c2cccc(N(C)C)c2O[C@@H]1CN(C)Cc1ccc(Cl)c(Cl)c1 | 3.2 |
| C[C@H](CO)N1C[C@H](C)[C@@H](CN(C)C(=O)Nc2ccc3c(c2)OCO3)Oc2ccc(NC(=O)CCCN(C)C)cc2C1=O | -0.4 |
| C[C@@H]1CN([C@@H](C)CO)C(=O)c2cc(NC(=O)Nc3cccc4ccccc34)ccc2O[C@@H]1CN(C)C(=O)NC1CCCCC1 | -1.4 |
| Cc1noc(C)c1S(=O)(=O)N(C)C[C@@H]1Oc2ccc(NC(=O)Nc3ccc(F)cc3)cc2CC(=O)N([C@@H](C)CO)C[C@@H]1C | -2.8 |
| C[C@H]1CN([C@@H](C)CO)C(=O)CCCn2nncc2CO[C@H]1CN(C)C(=O)C1CC1 | -0.2 |
| C[C@H](CO)N1C[C@H](C)[C@@H](CN(C)Cc2ccc(C(=O)O)cc2)Oc2ccc(NC(=O)Nc3ccccc3)cc2CC1=O | -0.3 |
| CC(C)NC(=O)Nc1ccc2c(c1)C(=O)N([C@H](C)CO)C[C@H](C)[C@@H](CN(C)S(=O)(=O)c1cn(C)cn1)OCCCC[C@H](C)O2 | 0.1 |
| COc1ccc(CN(C)C[C@@H]2Oc3ccc(NC(=O)Cc4cn(C)c5ccccc45)cc3CC(=O)N([C@H](C)CO)C[C@H]2C)cc1 | 8.6 |
| C[C@@H]1CN([C@H](C)CO)C(=O)Cc2cc(NC(=O)NC3CCCCC3)ccc2O[C@@H]1CN(C)Cc1ccc2c(c1)OCO2 | ? |
| COc1ccc(CN(C)C[C@@H]2Oc3ccc(NC(=O)Nc4ccc5c(c4)OCO5)cc3CC(=O)N([C@@H](C)CO)C[C@H]2C)cc1 | 2.0 |
| COc1ccc(NC(=O)Nc2ccc3c(c2)C(=O)N([C@H](C)CO)C[C@H](C)[C@@H](CN(C)C)O3)cc1 | -2.6 |
| Cc1noc(C)c1S(=O)(=O)Nc1ccc2c(c1)C(=O)N([C@@H](C)CO)C[C@@H](C)[C@@H](CN(C)C)O2 | 4.9 |
| C[C@@H]1CN([C@@H](C)CO)C(=O)CCCn2cc(nn2)CO[C@H]1CN(C)C(=O)c1ccc(N2CCN(C)CC2)cc1 | -1.7 |
| C[C@H]1CN([C@@H](C)CO)C(=O)Cc2cc(N(C)C)ccc2O[C@H]1CN(C)C | -4.5 |
| CNC[C@@H]1OCCCC[C@H](C)Oc2ccc(N(C)C)cc2C(=O)N([C@@H](C)CO)C[C@H]1C | -3.8 |
| Cc1noc(C)c1NC(=O)Nc1cccc2c1O[C@@H](CN(C)S(=O)(=O)c1cn(C)cn1)[C@H](C)CN([C@H](C)CO)C2=O | -2.7 |
| CNC[C@@H]1Oc2ccc(NC(=O)Nc3ccc(OC)cc3)cc2C(=O)N([C@@H](C)CO)C[C@@H]1C | 2.2 |
| Cc1noc(C)c1NC(=O)Nc1ccc2c(c1)CC(=O)N([C@@H](C)CO)C[C@H](C)[C@@H](CN(C)C)O2 | 2.1 |
| C[C@H](CO)N1C[C@H](C)[C@@H](CN(C)C(=O)Nc2ccc(-c3cccs3)cc2)OCc2cn(nn2)CCCC1=O | -3.7 |
| CC(C)NC(=O)N(C)C[C@H]1Oc2ccc(NC(=O)CCN3CCOCC3)cc2CC(=O)N([C@@H](C)CO)C[C@H]1C | -5.9 |
| C[C@H]1CN([C@@H](C)CO)C(=O)c2cc(NC(=O)C3CC3)ccc2O[C@@H]1CN(C)C(=O)Nc1ccc(F)cc1 | ? |
| COc1ccccc1S(=O)(=O)N(C)C[C@@H]1OCc2cn(nn2)CCCC(=O)N([C@H](C)CO)C[C@@H]1C | 4.5 |
| C[C@@H]1CN([C@H](C)CO)C(=O)Cc2cc(N(C)C)ccc2O[C@H]1CN(C)Cc1ccccc1 | 2.3 |
| COc1ccc(CN(C)C[C@@H]2Oc3ccc(NC(=O)Nc4ccc(OC)cc4)cc3CC(=O)N([C@@H](C)CO)C[C@H]2C)cc1 | -5.4 |
| C[C@H](CO)N1C[C@H](C)[C@@H](CN(C)S(=O)(=O)c2cccs2)Oc2c(NC(=O)Nc3ccc(C(F)(F)F)cc3)cccc2C1=O | 1.7 |
| CC(C)NC(=O)Nc1ccc2c(c1)C(=O)N([C@@H](C)CO)C[C@@H](C)[C@@H](CN(C)C(=O)Cc1ccccc1)OCCCC[C@H](C)O2 | 1.1 |
| C[C@@H]1CCCCO[C@H](CN(C)Cc2ccccc2)[C@@H](C)CN([C@@H](C)CO)C(=O)c2cc(N(C)C)ccc2O1 | 0.2 |
| COc1ccc(S(=O)(=O)Nc2ccc3c(c2)C(=O)N([C@H](C)CO)C[C@@H](C)[C@@H](CN(C)CC2CC2)O3)cc1 | -1.6 |

Later entries
| Molecule | Ran FRET |
| --- | --- |
| Cc1cc(C(=O)Nc2cccc3c2O[C@H](CN(C)C(=O)Nc2ccc(F)cc2)[C@@H](C)CN([C@H](C)CO)C3=O)n(C)n1 | -3.8 |
| C[C@@H]1CN([C@@H](C)CO)C(=O)Cc2cc(NS(=O)(=O)c3ccccc3)ccc2O[C@@H]1CN(C)C(=O)Nc1cccc2ccccc12 | -3.6 |
| C[C@H]1CN([C@@H](C)CO)C(=O)c2cc(NC(=O)Nc3ccccc3)ccc2O[C@H]1CN(C)Cc1ccncc1 | 1.9 |
| COc1ccccc1NC(=O)N(C)C[C@@H]1OCc2cnnn2CCCC(=O)N([C@H](C)CO)C[C@H]1C | 2.4 |
| COc1ccc(CN(C)C[C@H]2Oc3ccc(NC(=O)Nc4ccc(F)cc4)cc3C(=O)N([C@@H](C)CO)C[C@H]2C)cc1 | 0.1 |

Entries listed above that bear a hit mark in Ran FRET:
| Molecule | Ran FRET |
| --- | --- |
| C[C@@H]1CN([C@H](C)CO)C(=O)Cc2cc(NC(=O)Nc3ccc4c(c3)OCO4)ccc2O[C@@H]1CN(C)CC1CC1 | 24* |
